Bioassay records as filed in PubChem.
FGF22 binding: binders of recombinant human FGF22 by thermal shift | Q9HCT0 | AID 651658 | actives 1.5% (n = 340,000) | calls only at 9.99 µM | SYPRO orange fluorescence; percent of sucrose octasulfate shift, DMSO zero;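 active = melting point raised past a set limit in the mean and every replicate; inconclusive = no clear call; three in four hits are not shown here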
Target sequence (Q9HCT0 whole entry, looked up): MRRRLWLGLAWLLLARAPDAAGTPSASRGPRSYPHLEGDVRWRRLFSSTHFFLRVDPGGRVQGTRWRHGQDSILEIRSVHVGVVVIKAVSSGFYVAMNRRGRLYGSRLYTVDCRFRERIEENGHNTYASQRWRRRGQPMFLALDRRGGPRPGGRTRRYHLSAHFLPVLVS
Vif A3G: inhibitors of Vif binding to APOBEC3G peptide, primary screen, biochemical, TR-FRET, GST-Vif 1-94, biotin-A3G peptide, dose response retest (AID 1117319). TR-FRET GST-Vif / biotin-A3G peptide binding; higher % means a stronger effect; test concentration not given here; strong numbers were not always called active. inhibition, %; hits with a dose series show IC50 in µM. actives 0.57% (n = 260,000);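 active = above the screen mean plus three standard deviations and confirmed in dose response; inconclusive = results disagree or hit not tested in dose response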;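 also: Vif residues 1-94 fused to GST binding biotinylated APOBEC3G peptide 110-148; 0% = full assay without inhibitor and 100% = GST in place of GST-Vif; retest series ran down from 100 µM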
HNF4A DNA FP: change in binding of human HNF4 alpha to DNA; activity change, % at 10 µM; P41235; HNF4a-FITC DNA binding, fluorescence polarization, 1 h; actives 0.3% (n = 360,000); AID 1224865; in the data active = activity change above about 30%, passing the limit was not always enough;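 also: controls were the assay level and a saturating level of protein; the project sought stronger binding though the title names inhibitors; some compounds called inactive have numbers as strong as hits; positive values seem to mean higher polarization but the record does not say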
E coli growth: blocks Escherichia coli growth; OD600, 23 h; stronger effect = lower value; OD600 absorbance (test concentration not listed); actives 0.21% (n = 330,000);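 active = OD600 absorbance below the run mean of sample wells minus 3.6 SD, in any replicate, cut at about 0.56 in these data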;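 also: stock transfer was 300 nL into about 60 µL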
MLL AF4-AF9 inh: inhibitors of human MLL-AF4/AF9 interaction | P42568 | AlphaScreen, biotin-AF4 peptide binding to FLAG-AF9 | inhibition, % at 10 µM | actives 0.47% (n = 350,000) | AID 651704;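 active = every replicate reaching a set inhibition limit, whatever the replicate mean, cut at about 25% in these data; inconclusive = mean inhibition reaches that limit but some replicates miss it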;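 also: 0% = plate neutral control median and 100% = total signal loss; the record names both 10 and 1 µM as test concentration; the first replicate is given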
Target sequence (P42568 whole entry, looked up): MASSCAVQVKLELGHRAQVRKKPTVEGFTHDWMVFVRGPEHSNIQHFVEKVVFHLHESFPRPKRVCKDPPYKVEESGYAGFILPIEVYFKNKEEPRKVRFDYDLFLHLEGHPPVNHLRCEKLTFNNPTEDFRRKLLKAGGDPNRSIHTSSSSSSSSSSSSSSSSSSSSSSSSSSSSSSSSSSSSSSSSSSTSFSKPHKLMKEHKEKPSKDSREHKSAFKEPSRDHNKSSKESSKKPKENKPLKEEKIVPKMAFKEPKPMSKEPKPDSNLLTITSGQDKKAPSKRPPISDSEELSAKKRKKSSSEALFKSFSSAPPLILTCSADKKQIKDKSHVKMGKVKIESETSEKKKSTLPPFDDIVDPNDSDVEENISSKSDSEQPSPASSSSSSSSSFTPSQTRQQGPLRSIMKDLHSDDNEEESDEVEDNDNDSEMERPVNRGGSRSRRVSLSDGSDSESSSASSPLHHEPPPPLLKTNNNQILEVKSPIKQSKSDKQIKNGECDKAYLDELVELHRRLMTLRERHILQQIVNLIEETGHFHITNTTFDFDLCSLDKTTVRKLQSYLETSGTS
ALR H2O2 inh: human ALR oxidase inhibition via reduced H2O2; P55789; purified ALR, DTT oxidation, H2O2 HRP-luminol luminescence; inhibition, % (concentration not given with the values); actives 3.8% (n = 290,000); AID 485317;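 active = mean and each replicate at 75% or more; inconclusive = only one of the two met; inactive = neither met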;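 also: stock transfer was 7.5 nL into about 7.5 µL; 0% = neutral wells and 100% = wells with inactivated enzyme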
Target sequence (P55789 whole entry, looked up): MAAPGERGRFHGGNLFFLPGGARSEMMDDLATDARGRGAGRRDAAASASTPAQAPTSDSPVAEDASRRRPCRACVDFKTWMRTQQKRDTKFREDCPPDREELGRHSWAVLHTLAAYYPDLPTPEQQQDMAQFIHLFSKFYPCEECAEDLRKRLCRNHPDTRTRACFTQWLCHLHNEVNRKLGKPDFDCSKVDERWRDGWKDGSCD
rRNA inh HTS: selective bacterial rRNA inhibition in E. coli | E. coli WT GFP vs humanized-ribosome RFP mutants, fluorescence, 24 h; stronger effect = lower value; DMSO median 0, no signal -100 | GFP signal change (wild-type ribosome), % (test concentration not listed) | actives 1.6% (n = 350,000) | AID 720706;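 active = significant combined selectivity score with lowered wild-type GFP, culture density cut under 30%, mutant RFP and density less affected; inactive = any of these conditions unmet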; also: one replicate is shown; some compounds called inactive have numbers as strong as hits
rRNA inh HTS OD600: second read-out of rRNA inh HTS, no call of its own (marks repeat the call); OD600 change, %; measured here: OD600 growth;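 optical density of the mix in the first replicate; 0 = DMSO median and -100 = no signal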
rRNA inh HTS RFP: second read-out of rRNA inh HTS, no call of its own (marks repeat the call); RFP signal change, %; measured here: RFP humanized mutant strains;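 first replicate; 0 = DMSO median and -100 = no signal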
Numbers without * were called inactive; i = inactive; u = inconclusive; x = not tested or not shown. Only part of the results is shown; the hit share may differ from the screen's.

SMILES	FGF22 binding	Vif A3G	HNF4A DNA FP	E coli growth	MLL AF4-AF9 inh	ALR H2O2 inh	rRNA inh HTS	rRNA inh HTS OD600	rRNA inh HTS RFP
N#CCCN/N=C(\Cc1nc2ccccc2[nH]1)c1ccccc1	x	9.1%	10.0	x	x	-21.4	x	x	x
Cc1cc(C)nc(SCCc2ccncc2)n1	x	12.1%	1.0	0.723	x	x	x	x	x
COc1ccc(NC(=O)Nc2ccc3nc(C)c(C)nc3c2)cc1	x	-1.6%	1.0	0.654	x	-12.9	x	x	x
O=C(O)c1cccc2cccc(-c3c4ccc(=O)c(O)c-4oc4c(O)c(O)ccc34)c12	i	0.53µM*	-83.4	x	0.9	x	-22.3*	14.3*	-6.0*
Cc1cc(Nc2ccc(C)c(Cl)c2)nc(N2CCOCC2)n1	i	-6.6%	3.4	0.61	2.2	x	-58.3	-82.4	-19.1
COC(=O)c1ccc(OCc2nc(N)nc(N3CCOCC3)n2)cc1	x	-5.5%	-1.5	0.701	x	-0.2	x	x	x
CCc1nnc(NC(=O)CSc2nnc(-c3ccccc3NC(=O)c3ccccc3)o2)s1	x	u	0.2	0.731	x	4.8	x	x	x
Cn1c2c(c(=O)[nH]c1=O)C(c1ccc(O)cc1)C1=C(N2)c2ccccc2C1=O (configuration not stated)	i	x	-2.2	0.534	0.1	7.5	-31.5	-61.8	22.1
Cc1cccc(NC(=O)c2cc([N+](=O)[O-])ccc2NC2CCCCC2)c1	x	3.6%	1.0	0.715	x	-0.8	x	x	x
Cc1noc(C)c1NC(=O)Nc1ccc2c(c1)C(=O)N([C@H](C)CO)C[C@H](C)[C@H](CN(C)C(=O)Nc1c(C)noc1C)OCCCC[C@@H](C)O2	i	x	x	x	-3.2	x	1.5	-0.7	-1.1
CCOc1ccc2nc(NCCCNS(=O)(=O)c3ccccc3)c(C#N)cc2c1	x	2.7%	-0.8	0.654	x	-23.8	x	x	x
Cc1ccc(NC(=O)CC(N)=S)cc1	i	-2.4%	1.6	0.61	0.2	u	-2.0	5.2	4.2
Cc1noc(C)c1S(=O)(=O)N(C)C[C@@H]1OCc2ccccc2-c2ccccc2C(=O)N([C@@H](C)CO)C[C@H]1C	i	x	x	x	-2.9	x	0.6	3.3	-0.8
COc1ccccc1-n1c(=O)c2c3c(sc2n2c(=S)[nH]nc12)CCC3	i	-3.6%	-1.9	0.729	-3.3	x	2.6	-0.7	3.6
COc1ccc(OCC(=O)Nc2nnc(C)s2)cc1	x	9.0%	3.0	0.74	x	2.2	x	x	x
O=C(Nc1ccc(NC(=O)c2ccccc2Cl)cc1)c1cccnc1	i	x	-5.8	0.696	-3.3	-1.3	-0.9	1.2	-1.3
O=C(c1cc(-c2ccc(O)cc2)on1)N1CCc2ccccc2C1	x	9.6%	-1.6	0.731	-3.3	x	-53.5	-59.2	-11.6
CCN1C(=O)CC(NNC(=O)c2ccccc2)C1=O (configuration not stated)	i	3.5%	1.5	0.616	-2.7	-11.3	6.1	8.5	-0.8
Cc1ccc(-c2nn(C)c(=O)c3ccccc23)cc1CNC(=O)/C=C/c1ccccc1	x	-7.4%	2.8	0.724	x	x	x	x	x
CCC(=O)N1CCc2cc(S(=O)(=O)CCC(=O)NCc3ccc(C)cc3)ccc21	i	-2.4%	0.8	0.672	0.7	3.5	14.3	14.3	-0.7
O=C(/C=C/c1ccccc1[N+](=O)[O-])Nc1cccnc1	i	x	1.4	0.619	0.4	x	-2.3	2.7	5.5
CCOc1ccccc1N1CCN(C(=S)Nc2ccc(S(=O)(=O)Nc3ncccn3)cc2)CC1	i	x	-3.5	0.633	1.5	22.2	5.4	7.1	7.2
CC(=O)Nc1cccc(-c2ccnc3c2CC(C(=O)NCC2CC2)O3)c1 (configuration not stated)	i	x	2.1	x	1.2	x	-3.3	-6.6	-12.5
COc1cc2ccccc2cc1C(=O)Nc1ccccc1C	i	x	-0.7	0.671	-2.1	-6.6	8.5	15.6	-0.7
N#Cc1ccc(Oc2cnccn2)cc1	i	-3.7%	-2.5	0.694	-1.0	-0.9	2.1	2.1	0.6
C[C@@H]1CCCCO[C@H](CN(C)C(=O)CCC(F)(F)F)[C@H](C)CN([C@H](C)CO)C(=O)c2cc(NS(=O)(=O)c3cn(C)cn3)ccc2O1	i	x	x	x	2.6	x	-1.8	2.3	1.9
CC(C)(C)c1ccc(Cn2nnc3c(=O)[nH]c(C4CCCN(C(=O)c5ccco5)C4)nc32)cc1 (configuration not stated)	i	x	2.6	0.715	-4.6	4.5	-24.5	-56.5	24.9
CC(=O)N/C(=C\c1cccs1)C(=O)O	i	-10.5%	0.2	0.689	-0.6	-2.6	15.4	12.0	0.0
CC1CC(C)CN(C(=O)c2ccc3ncsc3c2)C1 (configuration not stated)	i	-17.4%	-1.8	0.64	-1.6	78.9*	-5.0	-5.1	0.1
Cc1cc(C)cc(Oc2ncnc3c2ncn3Cc2c(Cl)cccc2Cl)c1	x	-3.8%	-2.8	0.75	x	x	x	x	x
O=C(N[C@H]1CC[C@@H](CC(=O)N2CCc3ccccc3C2)O[C@@H]1CO)C1CCC1	i	x	x	x	-21.0	x	-0.4	6.7	-1.2
CC(C)(C)OC(=O)N1CCC(C(=O)Nc2cccc(C(=O)N3CCCC3)c2)CC1	i	x	-1.1	x	-1.8	x	12.0	9.7	-3.7
O=C(O)c1ccc2c3n(nc2c1)-c1ccc(Cl)cc1CO3	i	x	x	0.778	-1.2	25.7	-24.3	-37.7	1.3
COc1ccc(NC(=O)N2C[C@H](O)COC[C@H]3O[C@H](CC(=O)NCc4ccccc4OC)CC[C@@H]32)cc1	i	x	x	x	-1.6	x	-1.7	-2.8	-2.0
Cc1ccc(C(=O)OCC(=O)NC2CCCC2)cc1C	i	x	1.8	0.699	-4.6	-6.2	10.1	6.1	-0.4
COCCn1c(C)cc(C(=O)COC(=O)CCc2ccc(S(=O)(=O)N3CCOCC3)cc2)c1C	x	2.5%	2.3	0.68	x	-3.5	x	x	x
CCCc1cc(NCCCCO)n2c(nc3ccccc32)c1C#N	x	1.2%	3.1	0.719	x	-1.0	x	x	x
CC(=O)N1CCN(CC(=O)Nc2ccccc2C(=O)NCc2ccc(C)cc2)CC1	i	x	3.0	0.639	1.8	x	3.2	7.6	0.5
c1ccc(Nc2nc(N3CCCCC3)nc(N3CCNCC3)n2)cc1	x	-8.7%	-0.7	0.713	x	-3.4	x	x	x
CCOC(=O)N1CCN(CC(=O)Nc2ccccc2C(=O)Nc2ccccc2)CC1	i	x	-1.7	0.688	-2.0	x	x	x	x
CCOc1cccc(-c2nc3c(s2)CCc2onc(-c4cccc([N+](=O)[O-])c4)c2-3)c1	i	x	1.2	0.702	3.2	x	7.1	4.5	2.0
COc1ccccc1C(=O)NCCC(=O)Nc1ccc(OC(F)(F)F)cc1	x	x	0.7	0.678	-0.6	-2.3	4.6	-15.5	-6.6
COc1cccc(=O)c2c(C)oc(C)c12	x	u	-4.2	0.702	x	-12.3	x	x	x
COc1ccc2c(c1)[nH]c1c(=O)n(CCN(C)C)cnc12	x	u	2.8	0.701	x	-12.2	x	x	x
Cc1ccc(CNC(=O)c2cccc(S(C)(=O)=O)c2)cc1	x	9.2%	2.2	0.702	x	-25.9	x	x	x
CCOc1ccc(/C=C2\SC(=S)N(Nc3ccccc3)C2=O)cc1OC	x	-6.2%	2.1	0.713	x	-4.3	x	x	x
Cc1cccc(NC(=O)CN2C(=O)S/C(=C\c3cc(C)n(C)c3C)C2=O)c1	i	x	5.8	0.723	4.5	x	x	x	x
O=C(C[C@@H]1C=C[C@H](NS(=O)(=O)c2ccc(F)cc2)[C@@H](CO)O1)NCCN1CCCCC1	i	x	x	x	-1.2	x	-1.2	-4.1	1.7
CC(C)NC(=O)Nc1ccc2c(c1)CC(=O)N([C@@H](C)CO)C[C@@H](C)[C@H](CN(C)S(=O)(=O)c1ccc(Cl)cc1)O2	i	x	x	x	-0.2	x	-2.0	-6.2	0.7
CCN(CC)S(=O)(=O)c1ccc2[nH]cc(C(=O)NCCc3ccccc3)c(=O)c2c1	x	5.9%	2.0	0.707	x	-0.6	x	x	x
Cc1cccnc1NC(=O)CNC(=O)c1sc2ccccc2c1Cl	i	20.8%	-2.5	0.682	2.3	-1.5	-6.3	-7.2	-1.1
CCCCC(=O)Nc1cc(N(C)C)nc2ccccc12	x	-7.0%	-3.2	0.676	x	1.9	x	x	x
C[C@H](CO)N1C[C@H](C)[C@@H](CN(C)Cc2ccc(-c3ccccc3)cc2)Oc2c(NS(=O)(=O)c3ccc(Cl)cc3)cccc2C1=O	i	x	x	x	2.1	x	1.5	7.8	2.6
OC1CCCN(Cc2cn(Cc3ccccc3)nc2-c2cc3ccccc3o2)C1 (configuration not stated)	i	9.2%	0.1	0.647	3.8	-6.1	2.1	-7.8	3.8
COc1ccc(Cc2nnc(NC(=O)c3ccc(F)cc3)s2)cc1OC	i	-15.2%	-1.7	0.694	-1.3	-0.2	10.1	13.5	-2.3
Cc1nn(-c2ccccc2)c(N2CCCC2)c1/C=N/NC(=O)c1cc2ccccc2cc1O	i	24.9%	8.0	x	-1.8	7.1	x	x	x

Of the compounds above, these contain a Cl atom:
SMILES	FGF22 binding	Vif A3G	HNF4A DNA FP	E coli growth	MLL AF4-AF9 inh	ALR H2O2 inh	rRNA inh HTS	rRNA inh HTS OD600	rRNA inh HTS RFP
Cc1cc(Nc2ccc(C)c(Cl)c2)nc(N2CCOCC2)n1	i	-6.6%	3.4	0.61	2.2	x	-58.3	-82.4	-19.1
O=C(Nc1ccc(NC(=O)c2ccccc2Cl)cc1)c1cccnc1	i	x	-5.8	0.696	-3.3	-1.3	-0.9	1.2	-1.3
Cc1cc(C)cc(Oc2ncnc3c2ncn3Cc2c(Cl)cccc2Cl)c1	x	-3.8%	-2.8	0.75	x	x	x	x	x
O=C(O)c1ccc2c3n(nc2c1)-c1ccc(Cl)cc1CO3	i	x	x	0.778	-1.2	25.7	-24.3	-37.7	1.3
CC(C)NC(=O)Nc1ccc2c(c1)CC(=O)N([C@@H](C)CO)C[C@@H](C)[C@H](CN(C)S(=O)(=O)c1ccc(Cl)cc1)O2	i	x	x	x	-0.2	x	-2.0	-6.2	0.7
Cc1cccnc1NC(=O)CNC(=O)c1sc2ccccc2c1Cl	i	20.8%	-2.5	0.682	2.3	-1.5	-6.3	-7.2	-1.1
C[C@H](CO)N1C[C@H](C)[C@@H](CN(C)Cc2ccc(-c3ccccc3)cc2)Oc2c(NS(=O)(=O)c3ccc(Cl)cc3)cccc2C1=O	i	x	x	x	2.1	x	1.5	7.8	2.6
